Compound activity from PubChem.
Myc binder: binders of human c-Myc, primary screen, biochemical, small molecule microarray, anti-His fluorescence. Myc proto-oncogene protein (Homo sapiens), P01106. His-c-Myc binding. calls only. 1.5% of 17,000 active. AID 624141, 2012;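 active means spot fluorescence over background with P-value below 7% in all four replicate spots, showing protein binding; compounds were printed on slides so no solution concentration is given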;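 further: score is binary with 100 for all four spots passing and 0 otherwise; about 2 pmol printed per array spot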
ID4 SMM: binders of human ID4 protein, primary screen, biochemical, small molecule microarray, single point | AID 624137, 2012 | DNA-binding protein inhibitor ID-4 (Homo sapiens), P47928 | 1.2% of 31,000 active | calls only | Flag-ID4 binding, fluorescence F/B;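 active means spot signal over background at p below 0.07 in all four prints; compounds were printed on slides so no solution concentration is given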;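 further: a binder raises fluorescence above local background on the spot; about 2 pmol printed per array spot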
Target sequence (P47928 whole entry, looked up): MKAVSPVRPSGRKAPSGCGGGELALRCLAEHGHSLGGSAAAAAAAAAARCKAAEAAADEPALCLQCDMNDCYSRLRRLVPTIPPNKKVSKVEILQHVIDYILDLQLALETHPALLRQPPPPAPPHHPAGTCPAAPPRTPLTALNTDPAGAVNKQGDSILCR
STAT3 binder: STAT3 binders, primary screen, biochemical, small molecule microarray, single point, set 2 | 0.2% of 17,000 active | Signal transducer and activator of transcription 3 (Homo sapiens), P40763 | His-STAT3 binding, anti-His fluorescence | calls only;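 active means compounds whose four printed spots each show fluorescence over background unusually high for their array block, chance value under 7%; compounds were printed on slides so no solution concentration is given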;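 further: about 2 pmol printed per array spot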
Target sequence (P40763 whole entry, looked up): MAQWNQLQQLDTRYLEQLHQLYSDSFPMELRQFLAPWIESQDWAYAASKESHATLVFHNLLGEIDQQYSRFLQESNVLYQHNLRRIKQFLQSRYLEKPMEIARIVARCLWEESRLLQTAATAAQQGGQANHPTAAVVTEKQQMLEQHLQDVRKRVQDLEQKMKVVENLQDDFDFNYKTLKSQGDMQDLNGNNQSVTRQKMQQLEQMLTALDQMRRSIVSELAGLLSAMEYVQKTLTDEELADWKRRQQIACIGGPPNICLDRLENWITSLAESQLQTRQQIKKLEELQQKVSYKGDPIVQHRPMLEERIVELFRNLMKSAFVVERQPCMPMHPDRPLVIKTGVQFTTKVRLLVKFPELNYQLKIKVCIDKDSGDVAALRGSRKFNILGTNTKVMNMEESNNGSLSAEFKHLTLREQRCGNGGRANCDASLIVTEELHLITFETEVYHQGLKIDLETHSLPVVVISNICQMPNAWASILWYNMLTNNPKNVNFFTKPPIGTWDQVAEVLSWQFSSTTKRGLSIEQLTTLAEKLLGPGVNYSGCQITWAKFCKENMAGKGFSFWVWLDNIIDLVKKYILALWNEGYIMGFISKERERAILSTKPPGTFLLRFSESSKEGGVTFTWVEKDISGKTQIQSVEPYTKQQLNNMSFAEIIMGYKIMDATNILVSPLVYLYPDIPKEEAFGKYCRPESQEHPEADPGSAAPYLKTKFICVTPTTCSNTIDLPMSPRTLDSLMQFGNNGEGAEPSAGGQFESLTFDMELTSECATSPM
mut p53 SMM: binders of human mutant p53, primary screen, biochemical, small molecule microarray, anti-GST fluorescence; 0.4% of 17,000 active; calls only; small molecule microarray binding; mutant tumor protein p53 (GST-tagged), Homo sapiens; AID 624136, 2012;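 active means compounds whose four printed spots each glow above background more than chance allows, each with a p-value under 7%; compounds were printed on slides so no solution concentration is given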;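 further: about 2 pmol printed per array spot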
Calls only; i = inactive; nt = no result given; + = active, no number.

SMILES	Myc binder	ID4 SMM	STAT3 binder	mut p53 SMM
COc1c(O)cc([C@@H]2Oc3cc(O)cc(O)c3C[C@@H]2O)cc1O	i	nt	i	i
C[C@H]1CN([C@@H](C)CO)C(=O)Cc2cc(NC(=O)Cn3cnnn3)ccc2O[C@H]1CN(C)C	i	i	i	i
C[C@H](CO)N1C[C@H](C)[C@@H](CN(C)CC2CCCCC2)Oc2ccc(NS(=O)(=O)c3ccc(Cl)cc3)cc2CC1=O	i	i	i	i
O=C(O)CSc1c[nH]c2ccccc12	+	i	i	i
C[C@H](CO)N1C[C@H](C)[C@@H](CN(C)S(=O)(=O)c2ccccc2)Oc2ccc(N(C)C)cc2CC1=O	i	i	i	i
COc1c(O)cc2c(=O)oc3c(OC)c(O[C@@H]4OC[C@@H](O)[C@H](O)[C@H]4O)cc4c(=O)oc1c2c34	i	i	i	i
CCc1cc(-c2n[nH]c(C)c2-c2nc(C)cs2)c(O)cc1OCc1ccc([N+](=O)[O-])cc1	i	i	i	i
C[C@H]1CN([C@@H](C)CO)C(=O)CCCn2cc(nn2)CO[C@H]1CN(C)Cc1cccc2c1OCCCO2	i	i	i	i
Cc1onc(-c2c(F)cccc2Cl)c1C(=O)N[C@@H]1C(=O)N2C(C(=O)O)C(C)(C)S[C@H]12 (stereo partly drawn)	i	i	i	i
C[C@H](CO)N1C[C@H](C)[C@H](CN(C)C(=O)Nc2cccc3ccccc23)Oc2ncc(-c3ccccc3)cc2C1=O	i	i	i	i
C[C@H](CO)N1C[C@H](C)[C@H](CN(C)C(=O)Nc2ccc(F)cc2)Oc2ncc(/C=C/c3ccccc3)cc2C1=O	i	i	i	i
C[C@@H]1CN([C@@H](C)CO)C(=O)Cc2cc(NC(=O)c3ccncc3)ccc2O[C@@H]1CN(C)S(=O)(=O)c1ccccc1	i	i	i	i
COc1ccc(S(=O)(=O)N(C)C[C@H]2Oc3c(NC(=O)c4cc(C)nn4C)cccc3C(=O)N([C@H](C)CO)C[C@@H]2C)cc1	i	i	i	i
C[C@H](CO)N1C[C@H](C)[C@@H](CN(C)C(=O)CCCN(C)C)OCc2cn(nn2)CCCC1=O	i	i	i	i
CC(Oc1ccccc1)C(=O)Nc1c[nH]c(=O)[nH]c1=O (stereo not drawn)	i	i	i	i

Ordered by count of non-hydrogen atoms (smallest number first): part of the list above
SMILES	Myc binder	ID4 SMM	STAT3 binder	mut p53 SMM
CC(Oc1ccccc1)C(=O)Nc1c[nH]c(=O)[nH]c1=O (stereo not drawn)	i	i	i	i
COc1c(O)cc([C@@H]2Oc3cc(O)cc(O)c3C[C@@H]2O)cc1O	i	nt	i	i
C[C@H](CO)N1C[C@H](C)[C@@H](CN(C)C(=O)CCCN(C)C)OCc2cn(nn2)CCCC1=O	i	i	i	i
C[C@H]1CN([C@@H](C)CO)C(=O)CCCn2cc(nn2)CO[C@H]1CN(C)Cc1cccc2c1OCCCO2	i	i	i	i
C[C@H](CO)N1C[C@H](C)[C@H](CN(C)C(=O)Nc2ccc(F)cc2)Oc2ncc(/C=C/c3ccccc3)cc2C1=O	i	i	i	i

Other results:
SMILES	Myc binder	ID4 SMM	STAT3 binder	mut p53 SMM
COC(=O)c1ccccc1NC(=O)NCCc1ccccc1OC	i	i	i	i
CC(C)NC(=O)N(C)C[C@@H]1Oc2ccc(NC(=O)C3CC3)cc2CC(=O)N([C@@H](C)CO)C[C@@H]1C	i	i	i	i
COc1ccc(OC)c(NC(=O)CSc2nnnn2C)c1	i	i	i	i
C[C@H]1CN([C@@H](C)CO)C(=O)c2cccc(NC(=O)C3CCCCC3)c2O[C@@H]1CN(C)Cc1ccc(C(=O)O)cc1	i	nt	i	i
Cc1noc(C)c1S(=O)(=O)Nc1ccc2c(c1)C(=O)N([C@H](C)CO)C[C@@H](C)[C@H](CN(C)C(=O)CCC(F)(F)F)OCCCC[C@@H](C)O2	i	i	i	i
C[C@@H]1CN([C@H](C)CO)C(=O)Cc2cc(NC(=O)Nc3cccc4ccccc34)ccc2O[C@@H]1CN(C)C(=O)Nc1ccc2c(c1)OCO2	i	nt	i	i
COc1ccc(NC(=O)C23CC4CC(C2)CC(C(=O)Nc2ccc(OC)c(OC)c2)(C4)C3)cc1OC	i	i	i	i
C[C@H]1CN([C@@H](C)CO)C(=O)c2cccc(NC(=O)Nc3ccccc3)c2O[C@@H]1CN(C)S(C)(=O)=O	i	nt	i	i
Cc1noc(C)c1S(=O)(=O)N(C)C[C@@H]1Oc2ccc(NC(=O)CCCN(C)C)cc2C(=O)N([C@H](C)CO)C[C@@H]1C	i	i	i	i
C[C@H](CO)N1C[C@H](C)[C@@H](CN(C)S(=O)(=O)c2ccc(Cl)cc2)OCc2cnnn2CCCC1=O	i	i	i	i
CC1(C)CC[C@]2(C(=O)O)CC[C@]3(C)C(=CCC4[C@@]5(C)CC[C@H](O[C@@H]6O[C@H](CO)[C@@H](O)[C@H](O)[C@H]6O)[C@@](C)(CO)C5CC[C@]43C)[C@@H]2C1 (stereo partly drawn)	i	nt	i	i
COc1ccc(S(=O)(=O)N(C)C[C@H]2Oc3c(NC(=O)Nc4c(C)noc4C)cccc3C(=O)N([C@H](C)CO)C[C@H]2C)cc1	i	i	i	i
C[C@@H]1CN([C@@H](C)CO)C(=O)c2cc(NC(=O)Nc3ccc(F)cc3)ccc2O[C@@H](C)CCCCO[C@H]1CN(C)C(=O)Cc1ccccc1	+	i	i	i
C[C@@H]1CN([C@@H](C)CO)C(=O)Cc2cc(NC(=O)NC3CCCCC3)ccc2O[C@@H]1CN(C)C	i	i	i	i
COc1ccc(CN(C)C[C@H]2Oc3c(NS(=O)(=O)c4ccc(OC)cc4)cccc3C(=O)N([C@@H](C)CO)C[C@H]2C)cc1	i	i	i	i
C[C@@H]1CN([C@H](C)CO)C(=O)Cc2cc(NC(=O)CCN3CCOCC3)ccc2O[C@H]1CN(C)Cc1ccccc1	i	nt	i	i
CNC[C@H]1Oc2c(NS(=O)(=O)c3ccc(Cl)cc3)cccc2C(=O)N([C@@H](C)CO)C[C@H]1C	i	i	i	i
CCOc1ccc(-n2c(SCc3nc(-c4cccs4)no3)nnc2-c2ccncc2)cc1	i	i	i	i
C[C@H](CO)N1C[C@H](C)[C@H](CN(C)C(=O)C2CCCCC2)OCCCC[C@H](C)Oc2ccc(NC(=O)Nc3ccccc3)cc2C1=O	+	i	i	i
CCCCCCCC/C=C/CCCCCCCC(=O)NC(CO)Cc1ccc(O)cc1 (stereo not drawn)	i	i	i	i
Cc1nnc(SCc2nnnn2-c2ccccc2)[nH]c1=O	i	i	i	i
C[C@H]1CN([C@@H](C)CO)C(=O)CCCn2nncc2CO[C@@H]1CN(C)S(=O)(=O)c1ccc(Cl)cc1	i	i	i	i
Cc1noc(C)c1S(=O)(=O)N(C)C[C@H]1OCCCC[C@@H](C)Oc2ccc(NS(C)(=O)=O)cc2C(=O)N([C@@H](C)CO)C[C@@H]1C	i	i	i	i
CCc1cccc(C)c1NC(=O)CN(C)S(=O)(=O)c1ccccc1	i	i	i	i
Cc1ccc(-c2noc(CSc3nc(C)c(C)c(=O)[nH]3)n2)cc1	i	i	i	i
Cc1cc(C)c(C)c(S(=O)(=O)NCCC(=O)O)c1C	i	i	i	i
C#Cc1ccc([C@@H]2C=C(C(=O)OCC=C)O[C@H](OCc3ccc(CO)cc3)C2)cc1	i	i	i	i
C[C@@H]1CN([C@@H](C)CO)C(=O)c2cccc(NC(=O)C3CC3)c2O[C@@H]1CN(C)Cc1ccc(C(=O)O)cc1	i	nt	i	i
Cc1noc(C)c1NC(=O)Nc1cccc2c1O[C@@H](CN(C)S(=O)(=O)c1ccc(Cl)cc1)[C@H](C)CN([C@@H](C)CO)C2=O	i	i	i	i
C[C@@H]1CN([C@H](C)CO)C(=O)Cc2cc(NC(=O)CCN3CCOCC3)ccc2O[C@@H]1CN(C)C(=O)Nc1cccc2ccccc12	i	i	i	i
C[C@H](CO)N1C[C@H](C)[C@H](CN(C)S(=O)(=O)c2ccc(Cl)cc2)Oc2c(NS(C)(=O)=O)cccc2C1=O	i	i	i	i
COc1cc(NC(=O)COc2cc(C)c(C)cc2C)c(C(=O)O)cc1OC	i	i	i	i
C[C@H](CO)N1C[C@H](C)[C@@H](CN(C)CC2CC2)Oc2c(NC(=O)c3ccc(-c4nccs4)cc3)cccc2C1=O	i	i	i	i
O=C(CSc1n[nH]c(-c2ccc(Cl)cc2)n1)NC1CC2CCC1C2 (stereo not drawn)	i	i	i	i
Cc1noc(C)c1NC(=O)Nc1cccc2c1O[C@H](CN(C)C(=O)Nc1c(C)noc1C)[C@@H](C)CN([C@@H](C)CO)C2=O	i	i	i	i
C[C@H]1CN([C@@H](C)CO)C(=O)c2cccc(NC(=O)Nc3ccc(F)cc3)c2O[C@H]1CN(C)C	i	i	i	i
O=C(NCCCn1ccnc1)c1c(F)cccc1F	i	i	i	i
C[C@H](CO)N1C[C@H](C)[C@H](CN(C)S(=O)(=O)c2cn(C)cn2)Oc2ccc(NC(=O)NC3CCCCC3)cc2CC1=O	i	i	i	i
O=C(NCc1nc2ccccc2[nH]1)C1=C[C@H](c2ccc(C(F)(F)F)cc2)C[C@H](OCc2ccc(CO)cc2)O1	i	i	i	i
COC(=O)C1(Cc2ccc(O)c(CC=C(C)C)c2)OC(=O)C(OC)=C1c1ccc(O)c(O)c1 (stereo not drawn)	i	i	i	i
Cc1noc(C)c1S(=O)(=O)Nc1ccc2c(c1)C(=O)N([C@H](C)CO)C[C@H](C)[C@@H](CN(C)C(=O)CCC(F)(F)F)OCCCC[C@@H](C)O2	i	i	i	i
Cc1cc(C)cc(N(CC(=O)Nc2c(C)cc(C)cc2C)S(C)(=O)=O)c1	i	i	i	i
Cc1noc(C)c1S(=O)(=O)Nc1ccc2c(c1)CC(=O)N([C@@H](C)CO)C[C@@H](C)[C@@H](CN(C)S(=O)(=O)c1ccccc1)O2	i	i	i	i
C[C@@H]1CN([C@@H](C)CO)C(=O)c2cc(NC(=O)C3CC3)ccc2O[C@@H]1CN(C)C(=O)NC1CCCCC1	i	nt	i	i
C[C@H](CO)N1C[C@H](C)[C@H](CN(C)Cc2ccc(C(=O)O)cc2)Oc2ccc(NC(=O)C3CC3)cc2C1=O	i	i	i	i

The list goes on; the last five above are carried over.
SMILES	Myc binder	ID4 SMM	STAT3 binder	mut p53 SMM
Cc1noc(C)c1S(=O)(=O)Nc1ccc2c(c1)C(=O)N([C@H](C)CO)C[C@H](C)[C@@H](CN(C)C(=O)CCC(F)(F)F)OCCCC[C@@H](C)O2	i	i	i	i
Cc1cc(C)cc(N(CC(=O)Nc2c(C)cc(C)cc2C)S(C)(=O)=O)c1	i	i	i	i
Cc1noc(C)c1S(=O)(=O)Nc1ccc2c(c1)CC(=O)N([C@@H](C)CO)C[C@@H](C)[C@@H](CN(C)S(=O)(=O)c1ccccc1)O2	i	i	i	i
C[C@@H]1CN([C@@H](C)CO)C(=O)c2cc(NC(=O)C3CC3)ccc2O[C@@H]1CN(C)C(=O)NC1CCCCC1	i	nt	i	i
C[C@H](CO)N1C[C@H](C)[C@H](CN(C)Cc2ccc(C(=O)O)cc2)Oc2ccc(NC(=O)C3CC3)cc2C1=O	i	i	i	i
O=C(NCc1ccccc1)[C@@]1(CCS(=O)(=O)c2ccccc2)COC(c2ccc(OCCCO)cc2)=N1	i	nt	i	i
C[C@H](CO)N1C[C@H](C)[C@@H](CN(C)C(=O)Nc2ccccc2)OCCCC[C@H](C)Oc2ccc(NS(C)(=O)=O)cc2C1=O	i	i	i	i
C[C@H]1CN([C@@H](C)CO)C(=O)c2cccc(NS(=O)(=O)c3ccc(Cl)cc3)c2O[C@@H]1CN(C)C(=O)Nc1cccc2ccccc12	i	i	i	i
CCC(C)C(O)C(C)(O)/C=C/C1=CC2=CC(=O)C(C)(O)C(O)C2CO1 (stereo not drawn)	i	i	i	i
CCOC(=O)c1cn(C[C@H](Cc2ccccc2)NC(=O)N[C@H](CO)CCc2oc(C(C)=O)c(C(=O)OC)c2C(=O)OC)nn1	i	i	i	i
C[C@H]1CN([C@@H](C)CO)C(=O)CCCn2cc(nn2)CO[C@@H]1CN(C)Cc1ccncc1	i	i	i	i
C[C@@H]1CN([C@H](C)CO)C(=O)c2cccc(NC(=O)C3CCCCC3)c2O[C@H]1CN(C)C(=O)Nc1ccccc1	i	nt	i	i
C[C@@H]1CCCCO[C@H](CN(C)C)[C@@H](C)CN([C@H](C)CO)C(=O)c2cc(NS(=O)(=O)c3cccs3)ccc2O1	i	i	i	i
COc1ccc(S(=O)(=O)N(C)C[C@@H]2Oc3ccc(NC(=O)CCCN(C)C)cc3CC(=O)N([C@H](C)CO)C[C@H]2C)cc1	i	i	i	i
COc1ccc(C(C)=O)cc1CSc1nc(C)cc(C)n1	i	i	i	i
Cc1noc(C)c1S(=O)(=O)N(C)C[C@@H]1Oc2c(NC(=O)c3cnccn3)cccc2C(=O)N([C@@H](C)CO)C[C@@H]1C	i	i	i	i
CNC[C@H]1Oc2c(NC(=O)Nc3ccc(C(F)(F)F)cc3)cccc2C(=O)N([C@H](C)CO)C[C@@H]1C	i	i	i	i
C[C@H](CO)N1C[C@H](C)[C@@H](CN(C)S(=O)(=O)c2ccc(Cl)cc2)Oc2c(NC(=O)C3CCOCC3)cccc2C1=O	i	i	i	i

Not all compounds are listed; the hit share may differ from the screen's.
